Assay outcomes from PubChem.
RE007 growth inh = less growth of the S. pombe RE007 Vpr strain; AID 651644; S. pombe RE007 Vpr strain, BacTiter-Glo ATP luminescence, 24 h; control for the full effect not named in the record; 0.21% of 360,000 active; Potency, µM (titrated, usually from 92.2 µM), for the others: at the top dose activity change, negative = less growth; active = well fitted falling curve with a large enough effect; inconclusive = small, poorly fitted or top-dose-only effect; inactive = no such curve, though single readings can be large or run the other way;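 also: % is scaled to controls: 0 for no effect and ±100 for the full control effect; nearly all actives have a fitted effect of over 50% in size; the assay follows cell death caused by Vpr and the record does not say whether a fall means rescue or toxicity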
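Fission yeast strain RE007, carrying one chromosomally integrated HIV-1 vpr copy, was seeded at OD 0.01 in PMG+AL medium with 23 nL pinned compound. After 24 h at 30 °C and 99% humidity, viability was read by BacTiter-Glo luminescence.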
Cruzain Triton = cruzain (T. cruzi) inhibition with detergent; Potency, µM, for inactives: max response, negative = inhibition, most hits filed as inhibitors; purified cruzain, Z-FR-AMC fluorescence, 0.01% Triton; 0.43% of 200,000 active; P25779; active = well fitted curve in the direction sought with a large enough effect; inconclusive = small, poorly fitted or top-dose-only effect, or another doubt; inactive = no such curve, though single readings can be large; an effect the other way counts as inactive or inconclusive;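 also: plate controls were neutral wells for no effect and buffer without enzyme for full effect; nearly all actives have a fitted effect of over 40% in size; top concentration of the series not given in the record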
Target sequence (P25779 123-467 limits assumed): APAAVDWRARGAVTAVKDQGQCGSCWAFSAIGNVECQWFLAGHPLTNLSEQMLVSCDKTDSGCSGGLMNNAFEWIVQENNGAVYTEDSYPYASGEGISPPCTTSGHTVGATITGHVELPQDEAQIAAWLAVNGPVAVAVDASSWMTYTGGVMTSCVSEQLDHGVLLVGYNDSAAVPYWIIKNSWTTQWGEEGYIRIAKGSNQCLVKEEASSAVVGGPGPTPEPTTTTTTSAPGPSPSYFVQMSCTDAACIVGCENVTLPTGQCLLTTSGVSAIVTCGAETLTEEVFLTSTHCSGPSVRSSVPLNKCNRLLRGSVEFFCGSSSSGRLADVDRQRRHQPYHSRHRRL
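Detergent-containing arm of a paired screen for aggregation-based inhibition: 0.01% Triton X-100 present. Cruzain at 1.5 nM cleaved 2 uM Z-FR-AMC at pH 5.5 with 5 mM DTT; AMC fluorescence gain over 60 s measured activity.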
NS1 function inh = influenza NS1 inhibition; S. cerevisiae slowed by influenza A NS1, growth recovery by OD600; Potency, µM (top dose mostly 46.1 µM), inactives show at the highest dose activity, positive = more growth; 0.4% of 270,000 active; also: actives are rising curves; nearly all actives have a fitted effect of over 50% in size
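Growth recovery, yeast-based: influenza A NS1 expressed in S. cerevisiae causes slow growth, and suppressors are detected by OD600. The parent strain without NS1 is used as positive control.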
2A StopGo = lowers the luciferase signal of an FMDV 2A StopGo reporter. human cells with a luciferase reporter of 2A StopGo recoding; control for the full effect not named in the record. Potency, µM (highest dose often 57.9 µM), inactives show top-dose signal change, negative = less light. 1.2% of 410,000 active; active = well fitted falling curve with a large enough effect; inconclusive = small, poorly fitted or top-dose-only effect; inactive = no such curve, though single readings can be large or run the other way; tested in HEK293T cells; also: % is scaled to controls: 0 for no effect and ±100 for the full control effect; nearly all actives have a fitted effect of over 45% in size; luciferase light after 4 h
SARS PLP yeast = inhibitors of SARS-CoV papain-like protease in yeast | S. cerevisiae expressing SARS-CoV PLpro, growth rescue; control for the full effect not named in the record | Potency, µM (titrated, usually from 32.9 µM), without a hit: at the top dose activity, positive = growth rescue | 0.19% of 330,000 active | AID 485353; also: 0% is about no effect; nearly all actives have a fitted effect of over 55% in size; growth read by luminescence after 48 h
LASV entry inh = Lassa virus entry inhibition | Potency, µM (titrated, usually from 37.9 µM), for inactives: top-dose activity change, negative = inhibition, usual class: inhibitors | Lassa virus pseudotype entry inhibition, cell reporter; control for the full effect not named in the record | 1.2% of 300,000 active; active means well fitted inhibition curve with a large enough effect; inconclusive means small, poorly fitted or top-dose-only effect, or effect the other way; inactive means flat fitted curve, though single readings scatter; tested in HEK293 cells; also: % is scaled to controls: 0 for no effect and ±100 for the full control effect; nearly all actives have a fitted effect of over 50% in size; luciferase read-out
Cruzain inh noDet = blocks cruzain activity in detergent-free assay; purified cruzain, Z-FR-AMC fluorescence, no detergent; Potency, µM, for inactives: max response, negative = inhibition, most hits filed as inhibitors; 2.3% of 200,000 active; active = well fitted curve in the direction sought with a large enough effect; inconclusive = small, poorly fitted or top-dose-only effect, or another doubt; inactive = no such curve, though single readings can be large; an effect the other way counts as inactive or inconclusive;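 also: plate controls were enzyme without inhibitor for no effect and buffer without enzyme for full effect; nearly all actives have a fitted effect of over 40% in size; top concentration of the series not given in the record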
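Detergent-free condition (0.00005% Triton X-100) in acetate buffer pH 5.5 with DTT. 1.5 nM enzyme and compound were pre-mixed 15 min, then 2 uM Z-FR-AMC substrate added; reaction progress from fluorescence change between first and third reads (60 s).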
MARV entry inh = blocks Marburg virus binding to or entry into cells; Marburg virus pseudotyped entry inhibition, cell reporter; control for the full effect not named in the record; about a third of the inactives were read at about 46 µM; Potency, µM (top dose mostly 37.8 µM), for the others: at the highest dose activity change, negative = inhibition, usual class: inhibitors; 1.8% of 300,000 active; AID 540276; active = well fitted inhibition curve with a large enough effect; inconclusive = small, poorly fitted or top-dose-only effect, or effect the other way; inactive = flat fitted curve, though single readings scatter; tested in HEK293 cells; about a fifth of its hits are not listed in these tables; also: % is scaled to controls: 0 for no effect and ±100 for the full control effect; luciferase read-out
Active calls of the source: *; ? = inconclusive; . = no result given; & = joins results of further samples; [ ] = dose if it differs, or a comment. Unless noted, calls follow the shape of the dose curve; as a rule, active means well fitted rising curve with a large enough effect; inconclusive means small, poorly fitted or top-dose-only effect; inactive means no such curve, though single readings can be large or run the other way. Potency is read from the fitted curve at half-maximal effect. Outcome played no part in choosing rows. About 4.7% of those tested had a hit in this group.

SMILES	RE007 growth inh	Cruzain Triton	NS1 function inh	2A StopGo	SARS PLP yeast	LASV entry inh	Cruzain inh noDet	MARV entry inh
Nc1nc(-c2ccc3c(c2)CCCC3)c(CC(=O)O)s1	-22%	.	8%	8%	1%	?	.	-31%[46.1 µM]
CCc1ccc(NC(=O)C(CC)Sc2nc3ccsc3c(=O)n2CCC(=O)O)cc1 (centres undefined)	-5%	.	14%	0%	1%	.	.	.
S=c1[nH]nc(-c2ccco2)n1-c1ccc(Br)cc1	8%	.	.	-21%	.	24%	.	-3%
Cc1ccc(C(=O)NCC(=O)N2CCCN(C)CC2)cc1C	-3%	.	.	-8%	1%	3%	.	1%
O=C(CO)N/N=C/c1cccc(Cl)c1Cl	10%	-3.6%	7%	-7%	-23%	-8%	1%	2%
COc1ccc(N2CC(C(=O)N3CCN(C)CC3)CC2=O)cc1 (centres undefined)	-8%	.	-2%	4%	0%	12%[46.1 µM]	.	12%[46.1 µM]
C/C(CC(=O)Nc1ccc(Cl)c(Cl)c1)=N\NC(=O)C(=O)N1CCCCC1	-24%	.	6%	-3%	0%	27%[46.1 µM]	.	6%[46.1 µM]
COc1ccc2oc(=O)cc(-c3cc4ccccc4o3)c2c1	2%	.	0%	-14%	6%	1%[46.1 µM]	.	14%[46.1 µM]
O=C(NCCCCc1ccccc1)C1CC(c2ccc(C(F)(F)F)cc2)=NO1 (centres undefined)	-13%	.	-4%	-17%	4%	.	.	.
CN(C=O)c1ccc(CSc2ccccc2)cc1	16%	.	.	30%	.	3%	.	13%
CC(=O)NC1=C(N(C)C2CCS(=O)(=O)C2)C(=O)c2ccccc2C1=O (centres undefined)	-16%	-4.5%	20%	13µM*	4%	7.1µM*	-10%	?
COCCCNS(=O)(=O)c1ccc(S(=O)(=O)N2CCCC2)cc1	-10%	3.5%	4%	17%	7%	1%	-3%	-8%
COc1ccc(C2=[N+]([O-])C(C)(C)N(O)C2(C)C)cc1	-3%	4.9%	3%	4%	7%	8%	2%	?
Cc1nc(-c2ccc(C)c(S(=O)(=O)N3CCC(C(=O)Nc4ccc(Cl)cc4)CC3)c2)no1	.	-0.3%	.	-24%	.	?	7%	.
COc1ccc(N(Cc2cccs2)C(=O)c2ccc(OC)c(Cl)c2)cc1	.	-6.3%	.	-5%	.	-23%[46.1 µM]	12%	?
CCN(CC)C(=O)c1cc([N+](=O)[O-])cc2c1-c1ccc([N+](=O)[O-])cc1C2=C(C#N)C#N	-3%	.	4%	-11%	0%	18%[46.1 µM]	.	?
Cc1ccc(OCc2cc(C(=O)N3CCN(c4ccccc4)CC3)no2)cc1C	-13%	.	3%	18%	-6%	-27%	.	1%
CCNC(=S)N1CCN(C(=O)c2ccco2)CC1	13%	1.8%	4%	-3%	2%	4%	9%	14%
O=C1C2C3C=CC(CC3)C2C(=O)N1c1ccc2c(c1)OCO2 (centres undefined)	19%	0.6%	6%	0%	-20%	22%	-3%	7%
NC(=O)c1c(N)sc2c1CCCC2	14%	-22%	3%	7%	-2%	.	20µM*	-6%
CCc1ccc(NC2Nc3cc(C)nn3S2)cc1 (centres undefined)	-5%	-7.8%	-37%	67%[activator]	-32%	?	-4%	?
C=CCN(c1ccc(C(=O)Nc2cc(C)cc(C)c2)cc1)S(C)(=O)=O	22%	-4.7%	-14%	0%	-1%	-1%	2%	-20%
COc1ccc(NC(=O)C2C3CC/C=C\CCC32)cc1 (centres undefined)	-2%	.	4%	66%[activator]	0%	2%	.	?
CN(CC(=O)N1CCc2ccccc2C1)c1ccccc1	-8%	.	-3%	-3%	2%	18%[46.1 µM]	.	6%[46.1 µM]
CCOC(=O)c1c(C)[nH]c(C(=O)COC(=O)C2(C)CC2(Cl)Cl)c1C (centres undefined)	3%	-12%	-8%	-16%	6%	5%	22%	?
O=C1NCCCCC1NS(=O)(=O)c1cccc2ccccc12 (centres undefined)	15%	.	2%	38%[activator]	0%	3%[46.1 µM]	.	6%[46.1 µM]
Cc1nnc(NC(=O)CSc2n[nH]c(-c3ccccc3)n2)s1	4%	.	1%	-11%	0%	.	.	.
CCCN(C(=O)Cc1nc(N)n[nH]1)C1(C(=O)Nc2c(C)cccc2C)CCCCC1	37%	8.1%	-2%	-14%	-2%	4%	-8%	2%
N#C/C(=C/c1ccc(C(=O)O)cc1)C(=O)Nc1ccccc1	-11%	.	.	0%	-2%	15%	.	?
Cc1cccc(OCC(=O)N/N=C2/SCC(=O)N2Cc2ccco2)c1	-15%	.	1%	-4%	0%	1%	.	?
O=C(CSc1nc2ccccc2s1)Nc1cc(S(=O)(=O)N2CCOCC2)ccc1Cl	6%	-13%	22%	-22%	-15%	5%	-22%	16%
CN(Cc1ccon1)Cc1cn(Cc2ccccc2)nc1-c1ccc2c(c1)OCO2	9%	.	-7%	1%	0%	.	.	.
CCOC(=O)CCSc1nc2c(c(C(F)(F)F)c1C#N)CCC2	1%	-8.1%	-14%	-23%	-14%	-1%	14%	13%
CC(Cc1ccccc1)NC(=O)/C=C/C(=O)O (centres undefined)	-9%	.	.	13%	1%	15%	.	7%[46.1 µM]
CC1(C)Cc2nc3sc4c(SCC(=O)NCc5ccco5)ncnc4c3cc2CO1	-13%	-8.3%	15%	-27%	1%	?	?	?
Cc1cccc(N2CCN(C(=S)NCCc3ccccc3)CC2)c1C	1%	-7.6%	4%	13%	-3%	?	-15%	1%
CCOc1ccc(C(=O)NCC(C)C)cc1	7%	0.9%	-4%	22%	.	15%	2%	?
COC(=O)[C@@]1(Cc2ccc(F)cc2)[C@H]2c3cc(C(=O)N(C)C)n(Cc4ccc(C)o4)c3C[C@H]2CN1C(=O)c1ccccc1	-16%	-5.7%	.	0%	.	.	?	.
CCOc1ccc(-c2cc3nc(C4CCN(C(=O)OC(C)(C)C)CC4)c(C(=O)Nc4ccc(C)cc4Cl)cn3n2)cc1	.	-8.7%	.	-13%	.	-22%[46.1 µM]	?	?
COc1ccc(-c2cc(C(=O)Nc3cccnc3Cl)no2)cc1OC	6%	1.3%	-4%	10%&-11%	1%	?	2%	-25%
COc1ccc(C(=O)Nc2ccnn2C2CCN(C(C)CSC)CC2)cc1 (centres undefined)	2%	.	5%	12%	5%	.	.	.
Cc1ccc(-c2cc3nn(-c4ccccc4)c(N)c3c(=O)o2)cc1	-17%	-6.2%	-14%	-28%	0%	12%	15%	-26%
CC(Sc1nc(N2CCOCC2)nc(N2CCOCC2)n1)C(=O)Nc1ccccc1 (centres undefined)	-2%	0.8%	5%	-8%	4%	-3%	?	-20%&-20%
O=C(O)C1C2C=CC(O2)C1C(=O)Nc1cccc(C(F)(F)F)c1 (centres undefined)	-30%	.	-1%	0%	-13%	.	.	.
O=C(Nc1ccc(N2CCCCC2)cc1)c1ccc(F)cc1	-8%	3.7%	-4%	-17%	4%	?	25µM*	11µM*
O=[N+]([O-])c1cccc(/C([O-])=C(/C(=S)Nc2cccc3ccccc23)[n+]2ccccc2)c1	0%	-13%	?	-12%	-21%	12%[46.1 µM]	-29%	16%[46.1 µM]
COc1ccccc1CNC(=O)CN1C(=O)NC2(CCC(C)CC2)C1=O (centres undefined)	-4%	.	.	6%	4%	-10%[46.1 µM]	.	-19%[46.1 µM]
CCN(c1ccc(OC)cc1)S(=O)(=O)c1ccc2[nH]c3c(c2c1)CCCCC3	.	-3.3%	.	?	.	?	?	.
COC(=O)c1sc(NC(=O)c2cc3c(s2)CCCC3)nc1C	3%	-7.5%	-5%	27%	2%	-22%	-5%	11%
CCc1ccccc1NC(=O)Cc1c(C(=O)O)[nH]c2ccc(Cl)cc12	.	1.5%	.	-23%	.	1%[46.1 µM]	-3%	-3%[46.1 µM]
Cc1cc(C(=O)NN=C2CCCCC2)c2ccccc2n1	6%	-0.1%	11%	2%	13µM*	-6%	-9%	?
Cc1ccc(S(=O)(=O)N2CCC(=O)N(C(COCc3ccccc3)Cc3ccccc3)CC2)cc1 (centres undefined)	0%	-7.2%	-7%	-16%	3%	-5%	12%	28%
CCN(CC)S(=O)(=O)c1ccc2c(c1)N(CC(=O)Nc1ccc(Cl)cc1)C(=O)C1CCCN21 (centres undefined)	.	-13%	.	-12%	.	1%[46.1 µM]	2%	.
CCCCn1c(SCC(=O)Nc2ccccc2C(F)(F)F)nc2ccsc2c1=O	20%	-0.5%	0%	-6%	-15%	-2%	-5%	-5%
CC(C)(C)c1ccc(S(=O)(=O)Nc2ccc(C(=O)N3CCCC3)cc2)cc1	1%	.	12%	45%[activator]	-5%	?	.	-12%
CN(Cc1ccc(F)cc1)C(=O)c1cccc(OCc2ccccc2)c1	-14%	.	-58%	-10%	-7%	-7%	.	?
COc1ccc(/C(C)=N/Nc2nc(C)cc(-c3ccccc3)n2)cc1	-10%	.	.	?	.	?	.	2.5µM*
COc1ccc2oc(=O)c(-c3csc(Nc4ccc(O)cc4)n3)cc2c1	0%	-18%	?	?	1%	10µM*	-5%	?
CCCC[N+]12CCC(CC1)C(C(O)(c1ccccc1)c1ccccc1)C2 (centres undefined)	-2%	.	0%	-7%	-2%	12%[46.1 µM]	.	4%[46.1 µM]
N#CCCn1ncn(-c2ccccc2)c1=S	8%	-3.1%	5%	-14%	0%	0%	0%	-10%
COc1ccc(-c2cc(C(F)(F)F)nc(SCCC(=O)Nc3cc(C)on3)n2)cc1	0%	-3.7%	1%	-18%	.	-2%	6%	2%&2%
CCOc1cc(/C=C2\SC(=S)N(Nc3ccccc3)C2=O)ccc1O	8%	-4.4%	10%	0%	-1%	26%	-5%	-26%
O=C(Nc1cccnc1)c1ccc(S(=O)(=O)c2ccccc2)cc1	-8%	.	-2%	-27%	0%	-5%	.	?
